Screening results from PubChem.
NPYLR7 ag: mosquito NPYLR7 agonism. HEK293T NPYLR7/Galpha15, GCaMP6s calcium fluorescence. activation, % at 10 µM. 270,000 tested, 0.15% active; in the data active = activation above about 40%;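 also: 0% = vehicle and 100% = reference agonist at the receptor; some compounds past the cut are filed as inactive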
NPYLR7 ag max-min: also measured in NPYLR7 ag; calls as there; activation, %; measured here: Max-Min RFU normalised activation; some inactives read as strong as hits;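 span of the calcium signal over five minutes; 0% = vehicle and 100% = native peptide agonist; compound fluorescence can raise it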
* marks the source's active call; other numbers are inactive results; & = joins results of further samples.

Every second line gives: NPYLR7 ag max-min, NPYLR7 ag
- O=C(CN1CCN(Cc2nc(-c3ccco3)cs2)CC1)N1CCCC1
 : -24, -21
- O=C1CCC(c2ccc(Cl)cc2)=NN1c1ccc(F)cc1
 : 1, 1
- CN(C)S(=O)(=O)N1CCN(C(=O)NCCc2cccc(Cl)c2)CC1
 : 5, 7
- O=C(c1cccs1)N(CCn1cccn1)c1nc2c(F)cccc2s1
 : -22, -17
- Cc1noc(C)c1Cn1c(C)c(C(=O)NCc2cccs2)sc1=O
 : 1, 8
- CCNC(=S)N1CCC(C(NC(=O)c2ccccc2C)C(=O)NCCCOC)CC1 (configuration not stated)
 : 25, 21
- CN(C(=O)CNc1ccccc1OC(F)(F)F)c1ccccc1
 : 4, 11
- Cc1cccc(-c2cccc(CNC(=O)c3ccc(=O)[nH]n3)c2)c1
 : 1, 3
- CC(C)n1cncc1CN1CCOC(C(F)(F)F)C1 (configuration not stated)
 : 2, 3
- CCc1cc2c(C)cc(=O)oc2c2c(O)coc12
 : -3, 2
- COC(=O)C(OC(=O)C(C)NC(=O)C(C)(C)C)c1ccccc1 (configuration not stated)
 : 4, 8
- O=C(c1ccc(CSc2nc3cc(Cl)ccc3o2)cc1)N1C2CCC1CC(Oc1ccc(F)cc1F)C2 (configuration not stated)
 : -5, 1
- CCCCSc1nc2c(c(=O)[nH]1)C(c1sccc1C)C(C(=O)OC(C)C)C(C)=N2 (configuration not stated)
 : 14, 13
- N#Cc1ccc(C2CC(c3ccc(Cl)cc3)=Nc3ncnn32)cc1 (configuration not stated)
 : 9&3, 11&5
- COc1cc(Cl)c(C)cc1NC(=O)C(C#N)C(=O)CCc1cnn(C)c1 (configuration not stated)
 : 9, 1
- O=C(NCc1ccc(C(F)(F)F)c(F)c1)c1ccc(=O)[nH]c1
 : 11, 0
- CC(OC(=O)C1Cc2ccccc2S1)C(=O)Nc1ccc(S(=O)(=O)N2CCOCC2)cc1 (configuration not stated)
 : 11, 6
- Cc1ccc(CN(Cc2ccccc2)Cc2nc(C(=O)NCc3ccccc3)co2)cc1
 : 15, 20
- CN1CCN(n2ccc3c(nnc4c(-c5ccccc5)cnn43)c2=O)CC1
 : 2, 4
- Cc1ccc(S(=O)(=O)NC2CCN(c3ccccc3C(=O)NC3CCCc4ccccc43)CC2)cc1 (configuration not stated)
 : 19, 25
- COc1cccc(-c2cc(CC3(O)CCN(Cc4nccn4C)CC3)on2)c1
 : 0, 3
- CCC(CC)C(=O)N(CC(=O)NCC(=O)Nc1ccc(OC)cc1)Cc1ccccc1
 : -3, -9
- O=C(NCCNc1cccnc1)c1c(O)cccc1O
 : -5, 0
- Cc1cccc(N(C)c2cc(N3CCNCC3)ncn2)c1
 : 0, 4
- Cc1[nH]c2c(C(=O)O)cccc2c1C
 : 0, -5
- Cn1cc(C(=O)N2CCN(C(=O)CCc3ccccc3)CC2)c2nn(-c3ccccc3)c(=O)c-2c1
 : 0, 1
- COc1cc(C(=O)N2CCN(C(=O)NC3CCCC3)CC2)ccc1C
 : -1, 1
- CCN(CC)c1onc(-c2ccccc2)c1CN(CCOC)C(=O)c1cccc(OC)c1
 : 3, 5
- COCCOc1nc(-c2cccs2)n(-c2ccc(NC(=O)Nc3ccc(F)cc3F)cc2)n1
 : 14, 3
- COCCN1C(=O)COCc2cc(-c3cc(F)cc(F)c3)ccc21
 : 8, 9
- C/C=C(\C)C(=O)OC1C(OC(=O)C2(C)OC2C)c2cc3ccc(=O)oc3cc2OC1(C)C (configuration not stated)
 : 2, 4
- CCCCNC(=O)N1CCN(c2cc(Cl)nc(SCC(=O)NCc3ccc4c(c3)OCO4)n2)CC1C (configuration not stated)
 : 11, 2
- COc1ccc(-c2ncc(CN3CCCC(CO)(Cc4ccccc4F)C3)cn2)cc1 (configuration not stated)
 : 3, 5
- O=S(=O)(NCCC1CCCO1)c1ccc(C2CCCCC2)cc1 (configuration not stated)
 : 1, 3
- COCc1cc(N2CCN(c3ccccc3F)CC2)nc(SCc2cccc(C(=O)NC(C)c3ccccc3)c2)n1 (configuration not stated)
 : 10, 6
- COc1ccc(NC(=O)N2CCCC(C(=O)c3cccc(OC(C)C)c3)C2)cc1OC (configuration not stated)
 : -8, -6
- CC(Cc1cnccn1)Nc1ccc(-c2nccn2C)nn1 (configuration not stated)
 : -13, -12
- CCOC(=O)CN1C(=O)CN(C(=O)c2ccc(F)cc2)CCC(OC)c2ccccc21 (configuration not stated)
 : 10, 6
- COc1ccc(CCN(Cc2ccc(C)o2)C(=O)CN(CCN2CCOCC2)C(=O)Nc2ccccc2)cc1OC
 : -4, -2
- Cc1noc(N)c1C(=O)OCc1coc(-c2ccccc2)n1
 : 3, 8
- CCc1ccc(C(=O)Nc2c(-c3cccc(Cl)c3)nc3ccc(C)cn23)cc1
 : 8, 5
- COc1ccc(-c2cc(C(F)(F)F)n3ncc(C(=O)Nc4sc5c(c4C#N)CCC(C(C)(C)C)C5)c3n2)cc1 (configuration not stated)
 : 14, 8
- CC(=O)Nc1ccc(S(=O)(=O)Nc2cccc(-c3ccc4nncn4n3)c2)cc1
 : 0, -10
- CSc1nnc2c(n1)OC(c1ccc(O)c(O)c1)Nc1ccc(Br)cc1-2 (configuration not stated)
 : 3, 7
- C=CCNC(=O)Cn1cnc2c(nnn2CC)c1=O
 : 26, 0
- CCOC(=O)c1c(C)n(-c2ccccc2)c2ccc(OC(=O)c3ccccc3Br)cc12
 : -5, -3
- CCOc1ccc(OCCSc2nnc(NC)s2)cc1
 : 11, 6
- Brc1cccc(C=NN2CCN(Cc3ccccc3)CC2)c1
 : -7, -4
- CCn1nc(C)c2cnn(-c3ccccc3)c2c1=O
 : 7, 7
- Cc1c(Br)c(C(F)(F)F)nn1CC(=O)NCC1CCCO1 (configuration not stated)
 : 10, -5
- N=C1SC2CS(=O)(=O)CC2N1N=Cc1ccccc1 (configuration not stated)
 : -14, -12
- CNC(=O)C1Cc2ccccc2CN1C(=O)CCCN1C(=O)c2ccccc2C1=O (configuration not stated)
 : -2, -1
- CCOC(=O)CCCCCC(=O)N1CCc2c([nH]c3ccc(OC)cc23)C1c1ccccc1OC (configuration not stated)
 : 9, 21
- COc1ccc(NC(=O)Cn2c(-c3nnc(CC(C)C)o3)cc3ccccc32)cc1OC
 : -2, -1
- COCC(=O)N1CCN(C(C(=O)NCCCN2CCCCC2C)C2CCCC2)CC1 (configuration not stated)
 : -2, -3
- CCOC(=O)c1cnc2cc(C(F)(F)F)ccc2c1Nc1ccc(OC)c(OC)c1
 : 2, 2
- CC1CCc2c(sc3ncnc(NCC(c4ccccc4)N(C)C)c23)C1 (configuration not stated)
 : 8, 25
- Cc1cccc(-n2nc(-c3ccccc3)c3c2N(CC(=O)NCc2ccncc2)C(=O)CSC3c2ccc3c(c2)OCO3)c1 (configuration not stated)
 : 18, 27
- O=C(c1ccsc1)N1CCOC(Cc2cccc3ccccc23)C1 (configuration not stated)
 : 5, 6
- O=C(c1ccc(-c2ccsc2)nc1)N1CCCN(C2CCCCC2)CC1
 : 3, 17

Seven of the compounds above, bar-delimited.
smiles | NPYLR7 ag max-min | NPYLR7 ag
N=C1SC2CS(=O)(=O)CC2N1N=Cc1ccccc1 (configuration not stated) | -14 | -12
Cc1cccc(-n2nc(-c3ccccc3)c3c2N(CC(=O)NCc2ccncc2)C(=O)CSC3c2ccc3c(c2)OCO3)c1 (configuration not stated) | 18 | 27
Brc1cccc(C=NN2CCN(Cc3ccccc3)CC2)c1 | -7 | -4
CC1CCc2c(sc3ncnc(NCC(c4ccccc4)N(C)C)c23)C1 (configuration not stated) | 8 | 25
CCOc1ccc(OCCSc2nnc(NC)s2)cc1 | 11 | 6
Cc1c(Br)c(C(F)(F)F)nn1CC(=O)NCC1CCCO1 (configuration not stated) | 10 | -5
CNC(=O)C1Cc2ccccc2CN1C(=O)CCCN1C(=O)c2ccccc2C1=O (configuration not stated) | -2 | -1

Continuation.
Every second line gives: NPYLR7 ag max-min, NPYLR7 ag
- CCCCC(NC(=O)c1c(O)cccc1O)c1cccnc1 (configuration not stated)
 : 1, 1
- CNN=Cc1cc(Br)cc(Br)c1O
 : 17, 25
- O=C(C1CCN(c2ncccn2)CC1)N(Cc1ccsc1)CC1CCCO1 (configuration not stated)
 : 1, 13
- CC(=O)NC(=S)NN1C(=O)C2=CC=CC3=CC=CC(C1=O)C32 (configuration not stated)
 : -1, 0
- CCOC(=O)CC(C)NC(=S)N1CCC2(CC1)OCCCO2 (configuration not stated)
 : -12, -4
- CCn1cnnc1CCNC(=O)C1COc2ccccc2O1 (configuration not stated)
 : 6, 1
- NS(=O)(=O)c1ccc(NN=C2CCCCC2C2CCCCC2)c([N+](=O)[O-])c1 (configuration not stated)
 : -8, -4
- COc1ccc(OC)c2[nH]c(C(=O)NCCC(=O)O)cc12
 : -24, -13
- Cc1cc(C)n(C(C[N+](=O)[O-])c2ccc(Cl)cc2)n1 (configuration not stated)
 : -4, -2
- c1ccc(CC2c3nc[nH]c3CCN2Cc2ccc(-c3ccn[nH]3)o2)cc1 (configuration not stated)
 : 20, 9
- O=C(NCC1CC1)[C@@]1(OCc2ccc(F)cc2)CC(OCc2cccc(OC(F)(F)F)c2)[C@H](O)[C@H](O)C1 (some centres not stated)
 : 18, 26
- O=C(CSc1nnc(Cn2ccc(=O)[nH]c2=O)o1)c1ccc(Cl)cc1Cl
 : 2, -5
- CC=CCn1c(SC)nc2c1c(=O)[nH]c(=O)n2C
 : 4, 5
- COC(=O)[C@@H](NCc1cn[nH]c1-c1ccc(F)cc1)c1ccccc1
 : 1, 0
- Cc1nc(NCCNC(=O)COc2ccc(Cl)cc2)cc(N2CCCC2)n1
 : 3, 5
- CCOC(=O)Cn1c(=NC(=O)c2cc(C)n(CC)n2)sc2cc3c(cc21)OCO3
 : -2, -1
- CN(C)S(=O)(=O)CCCN1CCC2(CC1)c1ccccc1CC2O (configuration not stated)
 : 2, 2
- O=C(Cn1nc(-c2ccc(F)cc2)oc1=O)NCc1cccc(Cl)c1
 : -2, 0
- Cc1ccc(C)c(N2CCn3c2nc2c3c(=O)n(CCCO)c(=O)n2C)c1
 : -11, -8
- CN(C(=O)c1n[nH]c(=O)c2ccccc12)c1ccccc1
 : -25, -26
- O=C1NC(=NC2CCCC2)SC1=Cc1cc([N+](=O)[O-])ccc1N1CCCC1
 : -5, -3
- O=C(Nc1ccc(Oc2ccccc2F)cc1)C1CCN(CCCn2cccn2)CC1
 : -1, 3
- O=C(NCC1CN(c2ccc3c(c2)OCO3)C(=O)O1)C1CC1 (configuration not stated)
 : 3, 5
- CC1=CC[C@@H]2CN(C(=O)c3ccc(-n4cccn4)cc3)C[C@@H]2C1
 : 4, 7
- CCc1nc2ccc(C(=O)N3CCN(c4ccccc4)CC3)cn2c1N(C)CCC(C)C
 : -9, -3
- COc1ccc(-n2c(SCc3ccc(C(=O)NCc4ccc(F)cc4)cc3)nnc2-c2cccc(OC)c2)cc1
 : 15, 9
- CCCS(=O)(=O)N1CCN(c2nc(C)nc(CC)c2Cc2ccc(Cl)cc2)CC1
 : 8, 3
- COc1ccc(CC(=O)N2CCC(n3c(-c4ccccc4)nc4ccc(F)cc43)CC2)cc1C
 : 9, 14
- CCCCN(C)C(=O)Cn1c(C2CC(=O)N(c3cccc(C)c3)C2)nc2ccccc21 (configuration not stated)
 : 3, -1
- C=CCn1c(=O)c2c(nc3n2CC(C)=NN3Cc2ccccc2Cl)n(C)c1=O
 : 1, 6

Among those listed so far, 2 have a COOH group.
Every second line gives: NPYLR7 ag max-min, NPYLR7 ag
- Cc1[nH]c2c(C(=O)O)cccc2c1C
 : 0, -5
- COc1ccc(OC)c2[nH]c(C(=O)NCCC(=O)O)cc12
 : -24, -13

The listing picks up, repeating the 2 entries before the break.
Every second line gives: NPYLR7 ag max-min, NPYLR7 ag
- CCCCN(C)C(=O)Cn1c(C2CC(=O)N(c3cccc(C)c3)C2)nc2ccccc21 (configuration not stated)
 : 3, -1
- C=CCn1c(=O)c2c(nc3n2CC(C)=NN3Cc2ccccc2Cl)n(C)c1=O
 : 1, 6
- COCCNC(=O)c1cccc(CSc2nc(C)cc(N3CCN(c4ccc(OC)cc4)CC3)n2)c1
 : 11, 10
- COCc1cc(N2CCN(c3ccc(OC)cc3)CC2)nc(SCc2ccc(C(=O)NCc3ccco3)cc2)n1
 : 13, 14
- CCCC(C(=O)O)N1C(=O)/C(=C2/C(=O)N(C)c3ccccc32)SC1=S (configuration not stated)
 : -3, 3
- O=C(CCC1CCN(C(=O)Cc2ccccc2F)CC1)Nc1ccc2c(c1)OCCO2
 : -3, 12
- O=C1Nc2c(c(=O)[nH]c(=O)n2-c2ccccc2)C(C(F)(F)F)(C(F)(F)F)N1
 : 1, 3
- CCc1nccn1CCC(=O)N1CCc2c(nc(C)nc2N2CCCC2)C1
 : -6, -4
- CCN(Cc1ccco1)S(=O)(=O)c1ccc2c(c1)CCO2
 : 6, 6
- N#Cc1cccc(CN2C(=O)C3(SCCN3C(=O)c3cccs3)c3ccccc32)c1 (configuration not stated)
 : 13, 10
- CC(=O)c1ccc(N(C)C)cc1OCc1ccccc1F
 : -1, 0
- CC(C)c1cc(C2CCCN2C(=O)c2ccc(-n3cnnc3)cc2)no1 (configuration not stated)
 : -4, -2
- Cc1ccc(C=NNC(=O)Cn2ccc(C(F)(F)F)n2)o1
 : 2, 3
- CC(C)C(NC(=O)C1CCN(S(=O)(=O)c2ccc3c(c2)OCCO3)CC1)c1ccccc1 (configuration not stated)
 : -5, -1
- Cc1cc(C)n(Cc2nc(-c3sccc3C)oc2C)n1
 : 6, 8
- CC1=NC2=C(C(=O)CCC2)C(c2ccc(Br)cc2)C1C(=O)OC1CCCCC1 (configuration not stated)
 : 8, 9
- CC1(C)O[C@@H]2C[C@@](OCc3cccc(C(F)(F)F)c3)(C(=O)NCc3ccco3)CC(OCc3cccc(OC(F)(F)F)c3)[C@@H]2O1 (some centres not stated)
 : 16, 7
- COC(=O)c1ccc(Cn2cc(/C=C\[N+](=O)[O-])c3ccccc32)o1
 : -8, -5
- C=CCNC(=S)N1CCCc2ccccc21
 : 3, 3
- CC(=O)N[C@H]1CCN(C(=O)c2cccc(CC3CCNCC3)c2)C1
 : -2, -1

Some of the compounds tested; the hit share may differ from the screen's.
